Source: PubChem BioAssay
Methyltransferases – Primary Screen for Target Class Profiling of Small Molecule Inhibitors of Methyltransferases | 25,000 compounds, 3.9% hits | calls only at 40 µM | purified enzyme, MTase-Glo SAH luminescence; stronger effect = lower value; active = -50% or lower on at least one of six enzymes; inconclusive = the cases between; inactive = as a rule above -30% on all six;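 also: enzymes were COMT GAMT GNMT HNMT NNMT and PNMT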
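Each enzyme was assayed with SAM and its substrate. SAH formation detected by MTase-Glo luminescence; single-point 40 uM screen[…].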
Calls only; i = inactive; ? = inconclusive; + = active, no number. % is scaled to controls: 0 for no effect and ±100 for the full control effect.

SMILES	Methyltransferases
CC(C)OCCCn1c(=O)c2ccccc2n2c(SCc3ccc(F)cc3)nnc12	i
O=C(Nc1ccccc1)c1cnc2c(c1)N(C(=O)Cc1ccc(O)cc1)CCC2	+
Cc1ccc(Cl)cc1NC(=O)CSc1nnc2n(CC(C)C)c(=O)c3ccccc3n12	i
CCC(C)NC(=O)c1ccc2c(=O)n(C3CC3)c3nn(CC(=O)Nc4ccccc4)c(=O)n3c2c1 (stereo not drawn)	i
O=C1CN(Cc2cccc(Cl)c2)S(=O)(=O)c2ccccc2N1Cc1cccc(F)c1	i
O=C(CCc1nnc2n(CCc3ccccc3)c(=O)c3ccccc3n12)NCCC1=CCCCC1	i
CCCN1C(=O)c2cc3ccc(OC)cc3n2CC1(C)C(=O)NC1CCCCCC1 (stereo not drawn)	i
CC(C)CCNC(=O)C1c2c(n(C)c3ccccc23)SCC(=O)N1c1cccc(C(F)(F)F)c1 (stereo not drawn)	i
CC1CC(C)CN(C(=O)Cn2c(=O)oc3cc(S(=O)(=O)NC4CCCC4)ccc32)C1 (stereo not drawn)	i
CNC(=O)[C@@H]1C[C@H](n2cc(CNS(=O)(=O)c3cc(C)ccc3F)nn2)CN1	i
COCC1CN(C)CC12CCN(C(=O)CCc1ccc(OC)cc1)CC2 (stereo not drawn)	i
CCC1CCCCN1C(=O)Cn1c(=O)oc2cc(S(=O)(=O)N3CC(C)CC(C)C3)ccc21 (stereo not drawn)	i
COc1ccc(CN2C(=O)c3cc4sccc4n3CC2(C)C(=O)NC2CCCCC2)cc1 (stereo not drawn)	i
COCc1ncc(C)n1CCNC(=O)c1cc(-c2cc(C)ccc2C)n[nH]1	i
O=C(NCc1ccncc1)C(=O)NCC(c1cccnc1)N1CCOCC1 (stereo not drawn)	i
Cn1cccc1CN1CCC2(CC1)CNc1ccccc1[S+](=O)([O-])N2	i
COCCOCc1nc(C2CCCCN2C(=O)c2ccncc2)no1 (stereo not drawn)	i
CCc1ccc(CN2C(=O)c3cc4ccccc4n3CC2(C)C(=O)NCc2ccccc2)cc1 (stereo not drawn)	i
COCCn1nc2n(c1=O)CCC1(CC2)CCN(C(=O)CC(C)(C)C)CC1	i
CC(C)CCn1c(=O)c2ccc(C(=O)NC(C)C)cc2n2c(=O)n(CC(=O)Nc3ccc(F)cc3)nc12	i
C=C(C)[C@H]1C[C@@H](O)C(=C)CC[C@@H](O)C(=C)[C@@H](O)C1	+
COc1ccccc1[C@H](c1cccc2ccccc12)[C@@](C)(C#N)C(=O)N1CCC(c2cccc(C(F)(F)F)c2)CC1	?
CCOC(=O)c1cc2n(n1)CC(C)(C(=O)NC1CCCC1)N(c1ccc(OC)cc1)C2=O (stereo not drawn)	i
C=CC1C(O[C@@H]2O[C@H](CO)[C@@H](O)[C@H](O)[C@H]2O)OC=C(C(=O)OC)C1Cc1nccc2c1[nH]c1ccccc12 (stereo partly drawn)	i
Cc1ccc(CSc2nnc3n(Cc4ccccc4)c(=O)c4ccc(C(=O)NC(C)C)cc4n23)cc1	i
SMILES	Methyltransferases
CC1=C(/C=C/C(C)=C/C=C/C(C)=C/C(=O)O)C(C)(C)CCC1	i
C=C[C@@](C)(O)CC[C@@H]1[C@@]2(C)CCCC(C)(C)[C@@H]2CC[C@@]1(C)O	?
CCCn1c(=O)c2ccc(C(=O)NC(C)C)cc2n2c(=O)n(CC(=O)Nc3ccc(CC)cc3)nc12	i
CCC(C)NC(=O)c1ccc2c(=O)n(C3CC3)c3nn(CC(=O)NC4CCCC4)c(=O)n3c2c1 (stereo not drawn)	i
CC(C)c1cc2c(N3CCN(C4=NCC(C)(C)S4)CC3)ncnc2s1	+
Cc1c(Cl)cccc1N1C(=O)CSc2c(c3ccccc3n2C)C1C(=O)NCc1ccccc1 (stereo not drawn)	i
CCOCCCN1C(=O)c2ccc(-c3ccco3)n2CC1(C)C(=O)NC1CCCCCCC1 (stereo not drawn)	i
CN(C)c1ccc(CNC(=O)Cn2c(=O)oc3cc(S(=O)(=O)NC4CCCC4)ccc32)cc1	i
COc1ccc(C2(CNC(=O)c3ccc(NC(=O)c4ccco4)cc3)CCOCC2)cc1	i
O=C(NC1CC1)c1ccc2nnc(C3CCCC3)n2c1	i
CC(C)Cn1c(=O)c2ccccc2n2c(SCC(=O)Nc3ccc(F)cc3)nnc12	i
CN(c1ccccc1)c1cc(=O)c2ccnc(-c3cncnc3)c2o1	i
N[C@H]1CN(c2cncc(C(=O)N3CCCCC3)n2)C[C@@H]1C1CC1	i
COC(=O)c1cc2n(n1)CC(C)(C(=O)NC1CCC(C)CC1)N(Cc1ccccc1F)C2=O (stereo not drawn)	i
CN1C(=O)c2cc(C(=O)NCCCN3CCCC3=O)nn2CC1(C)C(=O)NC1CCCCC1 (stereo not drawn)	i
COc1ccc(C2CCC(=O)N2Cc2ccc(F)cc2)cc1 (stereo not drawn)	i
CC1(C(=O)Nc2ccccc2)CCc2cnc(N3CCOCC3)nc21 (stereo not drawn)	i
CNC(=O)c1ccc(NC(=O)c2nc(C(O)c3ccccc3F)oc2C)cc1 (stereo not drawn)	i
Cc1ccc(-c2nc(NCc3ccncc3)ncc2C(=O)O)cc1	i
CCOCCCNC(=O)C1c2c(n(C)c3ccccc23)SCC(=O)N1c1ccc(OC)cc1 (stereo not drawn)	i
OC[C@H]1O[C@@H](Oc2cc(O)cc(-c3cc4ccc(O[C@@H]5O[C@H](CO)[C@@H](O)[C@H](O)[C@H]5O)cc4o3)c2)[C@H](O)[C@@H](O)[C@@H]1O	i
O=C(Cn1nc2n(c1=O)CCCC2)NCc1ccc(F)cc1	i
CCCCN1C(=O)c2cc3c(OC)ccc(OC)c3n2CC1(C)C(=O)NC1CCC(C)CC1 (stereo not drawn)	i
CCC(C)C(=O)OC[C@H]1O[C@H](O[C@H]2O[C@H](CO)[C@@H](O)[C@H](O)[C@H]2O)[C@H](O)[C@@H](O)[C@@H]1O (stereo partly drawn)	i
O=C(NCCNc1cccnc1)C1CCC(=O)N(C2CC2)C1 (stereo not drawn)	?
SMILES	Methyltransferases
CC(C)c1ccc(-c2cc3n(n2)CC(C)(C(=O)NC2CCCCC2)N(Cc2ccco2)C3=O)cc1 (stereo not drawn)	i
COc1c2c(c(C)c3c1C(=O)OC3)O[C@@]1(C)C[C@@H](OC(C)=O)[C@]34O[C@](OC)(CC[C@]3(C)[C@H]1C2)OC4(C)C	+
CCOC(=O)C1CCC(CNC(=O)N2CCn3cccc3C2C(C)C)CC1 (stereo not drawn)	i
CC(C)(O)CCc1ccc(OCc2cc(-c3cccc(OC(F)F)c3)c3ncccc3c2)cc1	i
Cc1ccc(CCN2C(=O)CSc3c(c4ccccc4n3C)C2C(=O)NCCC(C)C)cc1 (stereo not drawn)	i
COc1ccc(NC(=O)CN(C)S(=O)(=O)c2ccc3[nH]c4c(c3c2)CCCC4)c(OC)c1	i
O=C1NCCCCCN(C(=O)C2CCCCC2)[C@H]2CCCC[C@@H]12	i
C[C@@H]1C(=O)O[C@H]2[C@H](O)C34[C@H]5C[C@@H](C(C)(C)C)C36[C@@H](OC(=O)[C@@H]6O)O[C@@]4(C(=O)O5)[C@@]12O (stereo partly drawn)	i
COc1ccc(CCN2C(=O)c3cc4occc4n3CC2(C)C(=O)NC2CCCCC2)c(OC)c1 (stereo not drawn)	i
COc1ccc(CCc2nc(C3CC(=O)N(c4ccc(Cl)cc4)C3)no2)cc1 (stereo not drawn)	i
O=C(NC(Cc1c[nH]c2ccccc12)C(=O)O)c1ccc(Cl)cc1 (stereo not drawn)	i
C=C1CCCC2(C)CC3(OC)OC(=O)C(C)=C3CC12 (stereo not drawn)	i
CCn1ccnc1CN(C)C(=O)c1ccc2oc(-c3ccc(C(F)(F)F)cc3)nc2c1	i
COc1ccc(C(=O)N2CCCC(n3cc(-c4nc(C5CC5)no4)nn3)C2)cn1 (stereo not drawn)	i
O=C(O)CCc1cc2ccoc2cc1O[C@@H]1O[C@H](CO)[C@@H](O)[C@H](O)[C@H]1O	i
CCC(CC)C(=O)Nc1sc2c(c1C#N)CCC(C(C)(C)CC)C2 (stereo not drawn)	i
O=C(Cn1ccc2cc(S(=O)(=O)N3CCCCC3)ccc21)NC1CCCc2ccccc21 (stereo not drawn)	i
Cn1cc(C(=O)OCC2CCN(CCNS(C)(=O)=O)CC2)c2ccccc21	i
CC(C)NC(=O)c1ccc2c(=O)n(C)c3nn(CC(=O)Nc4cccc(F)c4)c(=O)n3c2c1	i
CC(C)(C)C(=O)C(Oc1ccc(Cl)cc1)n1ccnc1 (stereo not drawn)	i
CC1CCC(NC(=O)C2(c3ccccc3)Cn3c(cc4sccc43)C(=O)N2Cc2ccccc2)CC1 (stereo not drawn)	i
CC(C(=O)NCc1cccc(Cl)c1)n1ccc2cc(S(=O)(=O)N3CCCCC3)ccc21 (stereo not drawn)	i
C=C1C(=O)O[C@@H]2/C=C(\C)CC/C=C(\C)CC[C@@H]12	i
CC(=O)N1c2ccc(-c3ccc(C(=O)O)cc3)cc2[C@H](Nc2ccc(Cl)cc2)C[C@@H]1C	?
CC(C)Cn1c(=O)c2ccc(C(=O)NC(C)C)cc2n2c(=O)n(Cc3cccc(Cl)c3)nc12	i
SMILES	Methyltransferases
CN1CCN(C(=O)c2cc3n(n2)CC(C)(C(=O)NCc2ccc(F)cc2)N(C)C3=O)CC1 (stereo not drawn)	i
COc1ccc(-c2nnc(C[C@@H]3C[C@@H](C(C)C)[C@H](CNCc4ccncc4)C=C3C)o2)cc1	i
Cc1cc2c(cc3n2CC(C(=O)NC2CCCCCC2)(c2ccccc2)N(Cc2ccccc2)C3=O)o1 (stereo not drawn)	i
CCOC(=O)C1CCN(C(=O)c2ccc3nccn3c2)CC1	i
CC1(C(=O)NC2CCCCCCC2)Cn2c(ccc2-c2ccccc2)C(=O)N1Cc1ccco1 (stereo not drawn)	i
COc1ccc(-c2cc3c(=O)n(CCNC(=O)c4ccsc4)ccn3n2)cc1	i
Cn1ncc(N2CCC(C(=O)N3CCC(C(N)=O)(N4CCCCC4)CC3)C2)cc1=O (stereo not drawn)	i
CC(=O)O[C@@H]1C[C@]2(C)[C@@]3(CCC4[C@@]5(C)CC[C@H](O[C@@H]6O[C@H](C(=O)O)[C@@H](O)[C@H](O[C@@H]7O[C@H](CO)[C@H](O)[C@H](O)[C@H]7O[C@@H]7O[C@@H](C)[C@H](O)[C@@H](O)[C@H]7O[C@@H]7OC[C@](O)(CO)[C@H]7O)[C@H]6O[C@@H]6O[C@H](CO)[C@H](O)[C@H](O)[C@H]6O)C(C)(C)C5CC[C@]42C)O[C@@H](O)[C@]12C3CC(C)(C)[C@@H](OC(=O)/C=C/c1ccc(O)c(O)c1)[C@@H]2OC(=O)/C=C/c1ccccc1 (stereo partly drawn)	i
NC[C@@H]1O[C@H](c2ccccc2)Cc2c1ccc(O)c2O	i
COc1ccc(-c2cc3n(n2)CC(C)(C(=O)NCc2ccccc2)N(Cc2ccc(C)o2)C3=O)cc1 (stereo not drawn)	i
CN1C(=O)c2cc(C(=O)N3CCC(C(N)=O)CC3)nn2CC1(C)C(=O)NC1CCCCCC1 (stereo not drawn)	i
CCCCN(CC)CCN1C(=O)c2cc3occc3n2CC1(C)C(=O)NC1CCCCCCC1 (stereo not drawn)	i
O=C(CCCc1ccccc1)Nc1ccc(OC2CCNCC2)nc1	?
O[C@@H]1C[C@@H](c2nc(-c3cnccn3)no2)N(Cc2cccs2)C1	i
CC(C)Oc1ccc(CN2C(=O)c3cc4occc4n3CC2(C)C(=O)NC2CCCC(C)C2C)cc1 (stereo not drawn)	i
Fc1ccc(-c2cccc(CN3CCOCC3)c2)c(Cl)c1	i
O=C(NCCc1ccc(Cl)cc1)c1ccc2c(=O)[nH]c3c(C(=O)NCC4CCCO4)sc(=S)n3c2c1 (stereo not drawn)	?
O=C(NCc1ccccc1)c1ccc2c(=O)nc3c(-c4ccccc4)n[nH]n3c2c1	i
Cc1ccc(CNC(=O)Cn2c(N3CCCCC3)nc(C)c(C)c2=O)cc1	i
CC(C)CCn1c(=O)c2ccccc2n2c(=O)n(CC(=O)Nc3ccc(F)cc3)nc12	i
O=C(Nc1ccccc1Cl)N1Cc2c(sc3c2CCCC3)-n2cccc2C1c1cccc(F)c1 (stereo not drawn)	i
Cc1ccc(Cn2c(=O)c3ccc(C(=O)NC(C)C)cc3n3c(=O)n(Cc4cccc(Cl)c4)nc23)cc1	i

Pulled one by one from above, two records:
SMILES	Methyltransferases
CC(C)CCNC(=O)C1c2c(n(C)c3ccccc23)SCC(=O)N1c1cccc(C(F)(F)F)c1 (stereo not drawn)	i
CC(C)Cn1c(=O)c2ccccc2n2c(SCC(=O)Nc3ccc(F)cc3)nnc12	i

Gathered by group, those above with a furan ring, fused or not
SMILES	Methyltransferases
CCOCCCN1C(=O)c2ccc(-c3ccco3)n2CC1(C)C(=O)NC1CCCCCCC1 (stereo not drawn)	i
COc1ccc(C2(CNC(=O)c3ccc(NC(=O)c4ccco4)cc3)CCOCC2)cc1	i
OC[C@H]1O[C@@H](Oc2cc(O)cc(-c3cc4ccc(O[C@@H]5O[C@H](CO)[C@@H](O)[C@H](O)[C@H]5O)cc4o3)c2)[C@H](O)[C@@H](O)[C@@H]1O	i
CC(C)c1ccc(-c2cc3n(n2)CC(C)(C(=O)NC2CCCCC2)N(Cc2ccco2)C3=O)cc1 (stereo not drawn)	i
COc1ccc(CCN2C(=O)c3cc4occc4n3CC2(C)C(=O)NC2CCCCC2)c(OC)c1 (stereo not drawn)	i
O=C(O)CCc1cc2ccoc2cc1O[C@@H]1O[C@H](CO)[C@@H](O)[C@H](O)[C@H]1O	i
Cc1cc2c(cc3n2CC(C(=O)NC2CCCCCC2)(c2ccccc2)N(Cc2ccccc2)C3=O)o1 (stereo not drawn)	i
CC1(C(=O)NC2CCCCCCC2)Cn2c(ccc2-c2ccccc2)C(=O)N1Cc1ccco1 (stereo not drawn)	i
COc1ccc(-c2cc3n(n2)CC(C)(C(=O)NCc2ccccc2)N(Cc2ccc(C)o2)C3=O)cc1 (stereo not drawn)	i
CCCCN(CC)CCN1C(=O)c2cc3occc3n2CC1(C)C(=O)NC1CCCCCCC1 (stereo not drawn)	i
CC(C)Oc1ccc(CN2C(=O)c3cc4occc4n3CC2(C)C(=O)NC2CCCC(C)C2C)cc1 (stereo not drawn)	i

An excerpt (hit frequency here may not be typical).
